Screening results (PubChem BioAssay)
GLA inh pH 4.5: qHTS Assay for Inhibitors of Human alpha-Galactosidase at pH 4.5; activity change, negative = inhibition, % at 105 µM; purified enzyme, 4-MU-alpha-Gal fluorescence, pH 4.5; Alpha-galactosidase A (Homo sapiens), P06280; 230,000 tested, under 10 active; inconclusive = small, poorly fitted or top-dose-only inhibition, or a rising curve; inactive = flat fitted curve, though single readings scatter; no compound was filed as active;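 also: 0% = full activity with enzyme and -100% = basal without enzyme; dose as in the result columns while the protocol names 77 µM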
Target sequence (P06280 whole entry, looked up): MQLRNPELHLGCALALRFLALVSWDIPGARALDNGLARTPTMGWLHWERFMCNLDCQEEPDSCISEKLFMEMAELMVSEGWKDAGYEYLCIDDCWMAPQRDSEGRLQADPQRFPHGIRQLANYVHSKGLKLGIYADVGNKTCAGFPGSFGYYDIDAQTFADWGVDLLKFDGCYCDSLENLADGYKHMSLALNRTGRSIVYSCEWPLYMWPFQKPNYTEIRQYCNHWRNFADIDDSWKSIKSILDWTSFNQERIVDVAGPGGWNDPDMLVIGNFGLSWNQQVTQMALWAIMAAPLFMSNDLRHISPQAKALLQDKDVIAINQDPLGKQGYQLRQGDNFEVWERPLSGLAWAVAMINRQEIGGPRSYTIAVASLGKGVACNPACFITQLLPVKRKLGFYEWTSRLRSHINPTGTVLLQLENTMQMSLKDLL
miR-21 reporter: qHTS Assay for Modulators of miRNAs and/orActivators of miR-21 | HeLa miR-21 FLuc reporter, luciferase, 48 h | Potency, µM (top dose mostly 38.3 µM), without a hit: top-dose reporter change, positive = more light | 340,000 tested, under 10 active | AID 2288, 2010; active = well fitted rising curve with a large enough effect; inconclusive = small, poorly fitted or top-dose-only effect; inactive = no such curve, though single readings can be large or run the other way;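 also: % of control where 0% means no effect; miR-21 action dims this reporter so a rising signal means less miR-21 action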
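HeLa cells stably expressing CMV-driven firefly luciferase with a downstream miR-21 binding sequence, endogenously expressing miR-21, were treated with titrations (up to about 40uM final) for 48 hours at 37 degree Celsius. Luciferase luminescence was read after lysis.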
Rango-impB inh: qHTS Assay for Inhibitors of Rango (Ran-regulated importin-beta cargo) - Importin beta complex formation; Importin subunit beta-1 (Homo sapiens), Q14974; Rango CFP/YFP FRET sensor + importin beta, 45 min; Potency, µM (series often up to 92.2 µM), inactives show top-dose inhibition of complex formation; 340,000 compounds, 0.031% hits; active = rising FRET ratio curve, often small or poorly fitted; inconclusive = mostly compound fluorescence or quenching in the first reads; inactive = flat curves in all reads;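 also: potency is read from the fitted curve at half-maximal effect; 0% = DMSO wells and 100% = buffer wells lacking importin beta; nearly all actives have a fitted effect of over 15% in size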
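Inhibition scored from the CFP 486 nm/YFP 530 nm FRET ratio 45 min after adding 0.125 microM importin beta to 50 nM Rango biosensor preincubated 5 min with compound (room temperature, PBS with DTT, Tween-20, BSA). No-importin wells as positive control.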
Rango dissoc inh: qHTS Assay for Inhibitors of RanGTP induced Rango (Ran-regulated importin-beta cargo) - Importin beta complex dissociation; Snurportin-1 (Homo sapiens) + GTP-binding nuclear protein Ran (Homo sapiens) + Importin …; Potency, µM (top dose mostly 46.1 µM), for the others: top-dose activity change, negative = inhibition; 340,000 compounds, 0.071% hits; Biochemical FRET Rango-importin beta, RanGTP-induced dissociation; AID 540253, 2011; active means falling FRET ratio curve, often poorly fitted, with flat reads before Ran was added; inconclusive means other falling curves, or compound fluorescence or quenching; inactive means flat or rising ratio curve;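 also: potency is read from the fitted curve at half-maximal effect; % of control where 0% means no effect; nearly all actives have a fitted effect of over 45% in size; -100% = wells without RanGTP and RCC1; the record marks most hits as doubtful in a second field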
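Recombinant Rango FRET biosensor (EYFP–snurportin 1 IBB–cerulean CFP10) at 0.1 uM premixed with 0.25 uM importin beta in PBS, 1 mM DTT, 0.02% Tween-20, 0.1% BSA. Compound added 5 min; RanGTP-RCC1 (0.6 uM Ran, 2 mM GTP, 0.2 uM RCC1) then triggers release, read at 45 min.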
Numbers without * were called inactive; ? = inconclusive; . = not tested or not shown; & = joins results of further samples. The list is partial; rates above refer to the full screens.

Results follow in this order: GLA inh pH 4.5 | miR-21 reporter | Rango-impB inh | Rango dissoc inh
1: C[C@@H]1CN([C@H](C)CO)C(=O)c2cc(NC(=O)C3CCCCC3)ccc2O[C@@H]1CN(C)Cc1ccc(C(F)(F)F)cc1
 : . | . | -0.4% | -1%
2: CCOC(=O)N1CCN(CC(=O)N2c3ccccc3CCc3ccccc32)CC1
 : -6 | -1% | -0.1% | -6%
3: COc1ccc(C(=O)CCN2CCCCCC2)cc1
 : 1 | 17% | 2.3% | -3%
4: CCCCn1cnc2c(c1=O)c1nc3ccccc3nc1n2Cc1ccc2c(c1)OCO2
 : -12 | 0% | -0.1% | -4%
5: COc1ccc(C(=O)NCS(=O)(=O)c2ccc(C)cc2)cc1
 : 9 | -4% | -5.7% | 39%
6: CCCOc1ccc(N2C(=O)CC(NCCc3ccc(S(N)(=O)=O)cc3)C2=O)cc1 (configuration not stated)
 : 7 | 0% | 11% | 1%
7: O=C(COc1ccccc1Cl)Nc1ccc(S(=O)(=O)Nc2ccccn2)cc1
 : . | -9% | -1.2% | -8%
8: Nc1nc(CN2CCN(c3ccccc3F)CC2)nc(Nc2ccc3c(c2)OCCO3)n1
 : 9 | -2% | 0.5% | 8%
9: COc1ccc(NC(=O)CN2CCCN(S(=O)(=O)c3ccc(F)cc3)CC2)cc1
 : 3 | 0% | 5.7% | -20%
10: Cc1nnc(SCC(=O)NCc2ccccc2Cl)n(N)c1=O
 : -1 | -5% | -1.5% | 17%
11: CC1CCN(S(=O)(=O)N2CCC(C(=O)NCc3cccnc3)CC2)CC1
 : 11 | 5% | 0.5% | -9%
12: Cc1cccc(NC(=O)CSc2cccc3cccnc23)c1
 : . | -19% | -2.2% | -17%
13: COc1ccc(S(=O)(=O)Nc2nc3ccccc3s2)cc1
 : -1 | -1% | -0.6% | 10%
14: COc1cc2c(cc1OC)C1=C(C#N)CN(C3CCCCC3)CN1CC2
 : -1 | -8% | ? | -18%
15: NC(=O)C[n+]1ccc(/C=N/O)cc1
 : -6 | 1% | -4.4% | -1%
16: C=CCNCCOCCOc1ccc(C)cc1[N+](=O)[O-]
 : -3 | 3% | 0.0% | -12%
17: CNC(=O)NC(=O)COC(=O)c1ccc(-n2c(C)ccc2C)cc1
 : -15 | -3% | -3.6% | -19%
18: CC(C)C[C@@H]1CN=C(N)N1C[C@@H]1CCCN1C[C@H](C)N1C[C@@H](Cc2ccccc2)N(CCc2ccc(Cl)c(Cl)c2)C1=N
 : . | . | 0.2% | 20%
19: COc1ccc(Cl)cc1NC(=O)C1CCCN(S(C)(=O)=O)C1 (configuration not stated)
 : . | 0% | 2.8% | 22%
20: CCN(CC)C(=O)c1ccc(CS(=O)(=O)Cc2ccccc2)cc1
 : . | 1% | -2.3% | 1%
21: O=C(CCCOc1ccc(Cl)cc1)Nc1nncs1
 : 0 | -26% | -6.5% | -15%
22: COC(=O)C1=C(C)N(C2CCCCC2)C(=O)C1
 : 1 | -2% | 8.1% | 6%
23: CCOc1ccc2nc(-c3cc(NC(C)=O)ccc3O)sc2c1
 : 10 | -31% | -0.8% | 18%
24: Cc1ccc(-c2nc3cccnc3o2)cc1NC(=O)COc1ccc(C(C)(C)C)cc1
 : -22 | ? | -0.4% | 13%
25: CCOC(=O)C1=C(C)N=c2s/c(=C3\C(=O)Nc4ccccc43)c(=O)n2C1c1ccc2c(c1)OCO2 (configuration not stated)
 : -10 | 0% | ? | -20%
26: Cc1ccnc2nc(C(=O)OCC(=O)Nc3ccc4c(c3)OC(F)(F)O4)nn12
 : 4 | 0% | 2.6% | 2%
27: CC(C(=O)N1CCCCC1)N1CCN(S(=O)(=O)c2ccc(Cl)cc2)CC1 (configuration not stated)
 : . | . | -1.7% | 2%
28: CS(=O)(=O)N1CCC(C(=O)Nc2ccc(Oc3ccccc3)cc2)CC1
 : -12 | 6% | -1.4% | -6%
29: CCOC(=O)Cc1c(C)[nH]c(=S)[nH]c1=O
 : -6 | -2% | -2.7% | 0%
30: CCNC(=S)N1CCN(Cc2ccccc2)CC1
 : 3 | 0% | 5.7% | -12%

Other results:
Results follow in this order: GLA inh pH 4.5 | miR-21 reporter | Rango-impB inh | Rango dissoc inh
31: CN1C2CCC1/C(=C\c1ccccc1F)C(=O)/C2=C/c1ccccc1F
 : -3 | -8% | 0.7% | -5%
32: CCC1=C(OC(=O)N(CC)CC)N2C(=O)OC(=NCC3CC3)[C@]2(Cc2ccccc2)[C@H]2C1=CC[C@H]1C(=O)NC(=O)[C@H]12
 : -14&1 | 7% | -0.7% | 23%
33: CC1CCC(NS(=O)(=O)c2ccc(Cl)nc2)CC1 (configuration not stated)
 : . | . | 0.2% | 15%
34: O=C(CSc1nnc2ccc(-c3cccnc3)nn12)Nc1ccccc1
 : . | . | -4.0% | -21%
35: CCc1ccc(N(CC(=O)NCc2ccco2)C(=O)CCC(=O)Nc2nccs2)cc1
 : . | 1% | -1.7% | -5%
36: CC(C)c1ccc(C(=O)Nc2nnc(S(=O)(=O)N3CCCCC3)s2)cc1
 : . | -3% | 4.3% | -7%
37: O=C1NC(=S)S/C1=C/c1ccc(N2CCOCC2)o1
 : -2 | -18% | ? | ?
38: Cc1ccc(Cn2cc(-c3ccccc3)nn2)cc1
 : . | -35% | 2.8% | -8%
39: Cc1nn(C)c(C)c1CN(C)C(=O)CCCC(=O)O
 : -4 | -2% | 2.8% | 8%
40: CCOc1ccc(-c2noc(-c3cccnc3)n2)cc1OCC
 : 5 | -21% | -3.6% | 19%
41: O=C1CN(C(=O)COC(=O)c2cnc(Cl)c(Cl)c2)c2ccccc2N1
 : -3 | 2% | 2.2% | 10%
42: CCCN1CCN(CCCNC(=O)CCn2nc(-c3ccccc3)ccc2=O)CC1
 : 2 | -3% | -5.3% | -9%
43: CCN(c1ccccc1)S(=O)(=O)c1ccc2c(c1)OCCO2
 : . | . | 1.2% | -2%
44: CCOc1ccc(C(=O)NCC(=O)Nc2ccc3c(c2)OCO3)cc1OCC
 : . | . | 0.1% | 7%
45: CSc1cc(C)nc(NC(C)=O)n1
 : -2 | 0% | -7.1% | ?
46: O=C(CN1CCC(NC(=O)C2CC2)CC1)Nc1cccc(F)c1
 : . | 0% | 3.2% | -4%
47: Cc1ccc(C(=O)N2CCCCCC2)cc1S(=O)(=O)Nc1ccccc1
 : . | -4% | -3.0% | -12%
48: Cc1ccc(CO/N=C/C2=C(Cl)c3ccccc3CC2)cc1
 : 4 | -4% | 0.5% | -6%
49: COc1ccc(C)cc1S(=O)(=O)N(CC(=O)Nc1ccc2c(c1)OCCO2)Cc1ccccc1
 : -12 | 1% | 0.1% | ?
50: O=C1CCC([N+](=O)[O-])C(C2CC=CCC2)N1 (configuration not stated)
 : . | . | 7.6% | -26%
51: CCOC(=O)N1C2=NC(C(=O)OC)=C(C(=O)OC)[C@@H]3N(Cc4ccccc4)c4ccccc4[C@]23C[C@H]1C(=O)OC
 : 7 | . | 0.4% | -11%
52: CCC(=O)NC1(C(F)(F)F)C(=O)NC(C)=C1C#N (configuration not stated)
 : 6 | -9% | -2.4% | -8%
53: Cc1ccc(NC(=O)CS(=O)CC(=O)N(C2CCCC2)C(C)C(=O)NC2CCCCC2)cc1 (configuration not stated)
 : -1 | 0% | 1.7% | -14%
54: COc1ccc(C(=O)N2CCN(Cc3nc(CC4CC4)no3)CC2)cc1
 : -2 | -3% | 3.0% | 28%
55: CC1CCC(n2c(=S)[nH]c3ccccc3c2=O)CC1 (configuration not stated)
 : -2 | -6% | 2.5% | -7%
56: O=C(NCCCCc1ccccc1)c1ccccc1Br
 : . | . | 1.0% | 7%
57: COc1ccc(CNC(=O)COc2cc3c(c4oc(=O)cc(C)c24)CCC(C)(C)O3)cc1
 : . | -5% | 0.0% | -11%
58: CC(C)Cn1nc(NS(=O)(=O)c2cccc3nonc23)c2cc3ccccc3nc21
 : . | -8% | 0.2% | -1%
59: Nc1c(Br)c(=O)[nH]c(=O)n1-c1ccc(F)cc1
 : . | 2% | -1.2% | -2%
60: Cc1ccc(CNC(=O)C2CCC(CNc3nc(=S)[nH]c4ccccc34)CC2)cc1 (configuration not stated)
 : 4 | -3% | 1.6% | -11%

The results go on.
Results follow in this order: GLA inh pH 4.5 | miR-21 reporter | Rango-impB inh | Rango dissoc inh
61: CCOC(=O)Cn1c(=NC(=O)C(C)C)sc2c(C)cc(C)cc21
 : -4 | 16% | 3.4% | 16%
62: NSc1nc(N)c2nc(-c3ccccc3)c(-c3ccccc3)nc2n1
 : -2 | -5% | ? | ?
63: Cc1sc2ncnc(SCC(=O)N3CCCCC3)c2c1C
 : . | -7% | -2.3% | 4%
64: COC(=O)c1onc(-c2ccccc2)c1C(=O)OC
 : 6 | -5% | 4.1% | 9%
65: O=C(CN1C(=O)NC(c2ccccc2)(c2ccccc2)C1=O)N1CCN(c2ccc(F)cc2)CC1
 : . | . | -0.1% | 0%
66: COc1ccc(/C=N/NC(=O)c2ccccc2OC)cc1COc1ccc(C)cc1
 : . | -2% | 2.5% | -3%
67: CN1CCN(C(=O)C2CC(c3c(F)cccc3Cl)=NO2)CC1 (configuration not stated)
 : -8 | -12% | 2.0% | 21%
68: COC(=O)c1ccc(C(=O)OC)c(NC(=O)Nc2ccc3c(c2)OCO3)c1
 : 4 | -32% | 1.1% | 0%
69: Cc1ccc(NC(=O)/C(=C/c2cccc([N+](=O)[O-])c2)NC(=O)C2CCCCC2)cc1
 : 9 | -2% | -1.9% | 2%
70: O=C(NCCCN1CCOCC1)c1cc(C(=O)C2CCCCC2)c[nH]1
 : -9 | 0% | -6.3% | -14%
71: COc1ccc(-c2[nH]nc3c2C(c2ccccc2OC(=O)N2CCOCC2)C(C#N)=C(N)O3)cc1 (configuration not stated)
 : -7 | -2% | 1.5% | 1%
72: Cc1cc(=O)oc2cc(OCC(=O)OCC(=O)NC(=O)NC(C)C)ccc12
 : 7 | -1% | 1.8% | 10%
73: CCOc1ccc(N(CC(=O)Nc2ccc(C)cc2)S(=O)(=O)c2c(C)noc2C)cc1
 : 5 | 15% | 4.0% | -15%
74: O=C(CSc1nncc2ccccc12)N1CCOCC1
 : -5 | -14% | 0.7% | 11%
75: Cc1ccn2cc(CNC(=O)c3cccs3)nc2c1
 : 3 | -8% | -0.9% | -2%
76: O=C(COC(=O)CCS(=O)(=O)c1ccccc1)Nc1cc(S(=O)(=O)N2CCCCC2)ccc1Cl
 : . | . | -0.6% | -4%

Molecules listed so far containing a CF3 group, in the order listed:
Results follow in this order: GLA inh pH 4.5 | miR-21 reporter | Rango-impB inh | Rango dissoc inh
1: C[C@@H]1CN([C@H](C)CO)C(=O)c2cc(NC(=O)C3CCCCC3)ccc2O[C@@H]1CN(C)Cc1ccc(C(F)(F)F)cc1
 : . | . | -0.4% | -1%
52: CCC(=O)NC1(C(F)(F)F)C(=O)NC(C)=C1C#N (configuration not stated)
 : 6 | -9% | -2.4% | -8%

Whole records from above:
Profile of `Nc1c(Br)c(=O)[nH]c(=O)n1-c1ccc(F)cc1` : GLA inh pH 4.5 = .; miR-21 reporter = 2%; Rango-impB inh = -1.2%; Rango dissoc inh = -2%
Profile of `CC(C)c1ccc(C(=O)Nc2nnc(S(=O)(=O)N3CCCCC3)s2)cc1` : GLA inh pH 4.5 = .; miR-21 reporter = -3%; Rango-impB inh = 4.3%; Rango dissoc inh = -7%
Profile of `Cc1ccc(-c2nc3cccnc3o2)cc1NC(=O)COc1ccc(C(C)(C)C)cc1` : GLA inh pH 4.5 = -22; miR-21 reporter = ?; Rango-impB inh = -0.4%; Rango dissoc inh = 13%
